Screening results: PubChem BioAssay, several laboratories
Vif TR-FRET: HIV-1 Vif–A3G interaction blockers – biochemical, TR-FRET, GST-Vif 1-94, biotin-A3G peptide, dose response retest, primary screen (AID 1117319). TR-FRET GST-Vif / biotin-A3G peptide binding; higher % means a stronger effect; test concentration not given here; strong numbers were not always called active. 0.57% of 260,000 active. one-dose inhibition, %; IC50 in µM for titrated hits;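 active means above the screen mean plus three standard deviations and confirmed in dose response; inconclusive means results disagree or hit not tested in dose response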;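 further: Vif residues 1-94 fused to GST binding biotinylated APOBEC3G peptide 110-148; 0% = full assay without inhibitor and 100% = GST in place of GST-Vif; retest series ran down from 100 µM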
RanGTP-Imp inh: inhibitors of RanGTP-importin-beta interaction, primary screen, biochemical, FRET, CFP-Ran, YFP-importin-beta, homogeneous; cell-free CFP-Ran/YFP-importin-beta FRET ratio; inhibition, % (test concentration not listed); 1.1% of 300,000 active;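 active means most replicates above 15%; inconclusive means exactly half above 15%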;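 further: 0% = DMSO wells and 100% = Ran loaded with GDP instead of GTP; wells of about 40 µL received 100 nL stock; the first replicate is given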
ALR inh: human ALR oxidase inhibition via reduced H2O2; P55789; purified ALR, DTT oxidation, H2O2 HRP-luminol luminescence; inhibition, % (no concentration beside the values); 3.8% of 290,000 active;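 active means mean and each replicate at 75% or more; inconclusive means only one of the two met; inactive means neither met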;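 further: stock transfer was 7.5 nL into about 7.5 µL; 0% = neutral wells and 100% = wells with inactivated enzyme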
Target sequence (P55789 whole entry, looked up): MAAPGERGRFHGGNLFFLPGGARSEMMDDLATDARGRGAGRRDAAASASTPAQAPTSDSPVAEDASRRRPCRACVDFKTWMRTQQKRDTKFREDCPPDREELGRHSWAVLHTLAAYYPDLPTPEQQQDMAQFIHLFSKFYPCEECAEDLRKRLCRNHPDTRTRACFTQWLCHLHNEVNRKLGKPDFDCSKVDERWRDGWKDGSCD
Calb FLC: affects C. albicans growth with fluconazole; C. albicans CaCi-2 (fluconazole-resistant clinical isolate) + fluconazole, Alamar Blue growth, 48 h; growth inhibition, % (concentration not given with the values); 0.57% of 300,000 active; AID 1979;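 active means most replicates above 75%; inconclusive means exactly half above 75%; inactive means most below 75%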;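 further: all wells also contain fluconazole at 8 µg/ml as a sub-toxic cotreatment; 0% = median of DMSO wells and 100% = median of geldanamycin control wells; wells of about 8 µL received 7.5 nL stock; the first replicate is given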
Beta2AR agonist: activates human beta-2 adrenergic receptor causing internalization | 0.43% of 340,000 active | response, % (concentration not given with the values) | AID 504454 | Am2.2-beta2AR cells, FAP receptor internalization, flow cytometry; reference of the scale not given here | P07550;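 active means response above a set limit, near 3 SD of response in nonfluorescent compounds, cut at about 42% in these data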;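 further: stock transfer was 100 nL into about 11 µL; a reference agonist was the positive control; negative values mostly stem from fluorescent compounds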
Target sequence (P07550 whole entry, looked up): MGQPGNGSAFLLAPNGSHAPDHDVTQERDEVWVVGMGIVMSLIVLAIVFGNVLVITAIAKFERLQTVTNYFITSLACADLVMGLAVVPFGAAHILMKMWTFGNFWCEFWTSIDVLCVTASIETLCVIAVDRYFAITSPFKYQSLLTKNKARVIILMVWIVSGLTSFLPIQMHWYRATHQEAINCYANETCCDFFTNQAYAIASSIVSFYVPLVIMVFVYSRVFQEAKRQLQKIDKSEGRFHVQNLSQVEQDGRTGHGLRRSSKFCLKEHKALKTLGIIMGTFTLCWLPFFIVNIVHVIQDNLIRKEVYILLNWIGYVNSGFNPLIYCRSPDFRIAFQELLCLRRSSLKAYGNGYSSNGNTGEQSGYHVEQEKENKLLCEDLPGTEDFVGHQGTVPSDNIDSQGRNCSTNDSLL
HNF4A DNA FP: change in binding of human HNF4 alpha to DNA; HNF4a-FITC DNA binding, fluorescence polarization, 1 h; 0.3% of 360,000 active; activity change, % at 10 µM; AID 1224865; in the data active means activity change above about 30%, passing the limit was not always enough;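 further: controls were the assay level and a saturating level of protein; the project sought stronger binding though the title names inhibitors; some compounds called inactive have numbers as strong as hits; positive values seem to mean higher polarization but the record does not say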
LANA-H2A inh: blocks KSHV LANA binding to histone H2A/H2B. cell-free LANA-H2A/H2B peptide, fluorescence polarization. AID 2629. 0.6% of 320,000 active. Q9QR71. inhibition, % (no concentration beside the values); in the data active means inhibition mostly above about 10%, no sharp cut-off; inactive means mostly below about 6.7%;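 further: stock transfer was 7.5 nL into about 10 µL; 0% = median of vehicle wells and 100% = median of positive control wells; one replicate is shown; the record names a cut of 25% in any replicate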
Numbers without * were called inactive; ? = inconclusive; nt = no result given.

SMILES	Vif TR-FRET	RanGTP-Imp inh	ALR inh	Calb FLC	Beta2AR agonist	HNF4A DNA FP	LANA-H2A inh
Cc1cc(C)nc(NC(=O)NS(=O)(=O)Nc2ccc(Br)cn2)n1	-1.6%	-2.2	-1.0	-7.7	2.8	2.0	-0.7
Nn1c(SCC(=O)N2CCCc3ccccc32)nncc1=O	nt	-4.4	nt	4.3	-10.2	1.0	0.8
CCN(CC)c1ccc(NC(=O)COC(=O)C2CCN(c3ccc(C(F)(F)F)cn3)CC2)cc1	4.8%	nt	nt	nt	-2.6	2.5	nt
O=C(N/N=C/c1cccs1)c1ccc2ccccc2c1	5.0%	1.5	36.3	-6.7	6.0	3.4	3.1
CC1(c2nnc(-c3cccc(Cl)c3)o2)CC(c2ccc(C#N)cc2)=NO1 (stereo not given)	nt	-1.2	16.1	-2.7	0.2	1.7	4.0
O=C(Nc1cccc2ncccc12)c1ccco1	nt	1.5	-6.4	6.5	-5.5	0.3	-4.5
CCN1CCC(=NNC(=O)CC23CC4CC(CC(C4)C2)C3)CC1	97.5µM*	1.2	-2.7	-2.4	-0.9	-0.8	-9.8
COc1cc(OC)c(-c2nn3c(C4CCCCC4)nnc3s2)cc1OC	-3.5%	1.4	-0.9	10.4	-5.4	0.7	0.5
COc1ccc(N(C)S(=O)(=O)c2cccc(C(=O)OC(C)C(=O)NC3CCCCC3C)c2)cc1 (stereo not given)	7.7%	nt	3.5	0.3	-7.3	-1.1	-3.8
O=C(O)c1[nH]c2ccccc2c1C(c1cc(Br)ccc1O)c1c(C(=O)O)[nH]c2ccccc12	20.8%	-9.4	50.0	0.2	4.4	-7.3	3.1
CC1=C(C)C(=O)C(CCCCC#CCCCC#CCO)=C(C)C1=O	19.1%	1.4	nt	nt	3.0	-1.2	-1.6
COc1ccccc1OC(C)C(=O)Nc1ccc2c(c1)OCCO2 (stereo not given)	nt	-2.9	3.3	-6.3	5.5	-0.9	-0.2
O=Cc1ccc(N2CCCC2)c([N+](=O)[O-])c1	nt	3.2	-4.2	-13.2	-8.1	0.7	0.6
COc1ccc(OC)c(NC(=O)CN2C(=O)C3(OCCCO3)c3ccccc32)c1	-3.0%	2.5	nt	-1.9	-5.8	1.4	nt
O=C(Cn1cc([N+](=O)[O-])cn1)NCc1ccc(-n2cccn2)cc1	10.4%	?	1.1	7.4	0.4	0.1	1.1
Cc1cccc(N(Cc2ccccc2)C(=O)c2ccc(C)c(S(=O)(=O)N3CCOCC3)c2)c1	6.5%	nt	-5.6	nt	6.2	2.7	2.7
CCOC(=O)C1=C(c2ccccc2)NC(SCC(=O)Nc2ccc(C)cc2)=C(C#N)C1c1ccco1 (stereo not given)	?	2.0	-5.8	-1.4	-5.0	1.2	-3.9
CN(C1CCCCC1)S(=O)(=O)c1ccc(=S)[nH]c1	-13.3%	nt	-3.4	nt	4.5	2.6	8.0
COc1ccnc(Oc2ccc(F)cc2)c1C(=O)N/C=N/OCc1ccc(F)cc1Cl	-0.8%	-0.7	-2.4	3.4	3.1	-0.7	0.4
COc1cccc(NC(=O)CNS(=O)(=O)c2ccc3nc(C)sc3c2)c1	-4.3%	0.3	2.9	25.1	-6.9	4.4	-1.0
Cc1ccc(NC(=O)c2ccccc2-c2ccccc2C(=O)O)cc1	3.3%	-1.0	-12.4	0.6	1.4	1.3	-0.6
O=C(c1cccc(S(=O)(=O)N2CCOCC2)c1)N1CCOCC1	3.0%	-1.0	-54.9	0.4	0.4	0.4	-3.5
CC1=C(C(=O)Nc2ccc(CC(=O)NCc3ccc(OC(C)C)cc3)cc2)SCCO1	nt	-2.9	2.5	4.2	8.7	-5.7	-0.1
O=C(Nc1ccccc1N1CCN(c2ccc(F)cc2)CC1)c1ccccc1	?	-0.9	-2.0	6.3	-0.7	0.7	5.1
Cc1cc(C(=O)CN2CCCCC2)c(C)n1-c1ccc(F)cc1	7.2%	-1.0	-5.1	15.9	nt	-0.1	-4.8

Reprinted at random: three entries already listed.
SMILES	Vif TR-FRET	RanGTP-Imp inh	ALR inh	Calb FLC	Beta2AR agonist	HNF4A DNA FP	LANA-H2A inh
O=C(O)c1[nH]c2ccccc2c1C(c1cc(Br)ccc1O)c1c(C(=O)O)[nH]c2ccccc12	20.8%	-9.4	50.0	0.2	4.4	-7.3	3.1
COc1ccc(N(C)S(=O)(=O)c2cccc(C(=O)OC(C)C(=O)NC3CCCCC3C)c2)cc1 (stereo not given)	7.7%	nt	3.5	0.3	-7.3	-1.1	-3.8
Cc1cccc(N(Cc2ccccc2)C(=O)c2ccc(C)c(S(=O)(=O)N3CCOCC3)c2)c1	6.5%	nt	-5.6	nt	6.2	2.7	2.7

Continued:
SMILES	Vif TR-FRET	RanGTP-Imp inh	ALR inh	Calb FLC	Beta2AR agonist	HNF4A DNA FP	LANA-H2A inh
Cc1ccc(C)n1-n1cnc2scc(-c3cccs3)c2c1=O	2.1%	2.5	-21.5	-3.2	-3.2	1.4	0.4
CCCn1c2ccc(F)cc2c2nnc(SCCN3CCCCC3)nc21	nt	2.5	3.0	-10.4	-3.7	2.0	1.4
Cc1ccc(S(=O)(=O)N2CCN(C(=O)CCCOc3cccc(C)c3)CC2)cc1	nt	nt	1.3	nt	5.9	0.8	-3.4
NS(=O)(=O)c1ccc(NC(=O)COC(=O)CCC2CCCC2)cc1	-1.0%	2.2	nt	-0.4	-7.4	0.1	5.7
CC1CN(S(=O)(=O)c2cccc(C(=O)Nc3cc(Cl)ccc3N3CCOCC3)c2)CC(C)O1 (stereo not given)	-5.4%	nt	-1.4	nt	-4.2	-3.0	-3.6
Cc1cccc(-n2c(C)nc3ccsc3c2=O)c1	nt	2.7	-8.8	-13.4	-9.4	3.0	2.7
Cc1cc(C)c2nc3c(c(C(=O)O)c2c1)CCC3	20.8%	-2.5	-9.0	2.1	0.8	-1.3	-0.1
N#CCSc1nc2ccccc2c(=O)n1CCCC(=O)NCC1CCCO1 (stereo not given)	-0.7%	0.4	-5.2	12.1	-1.0	3.6	nt
CCOC(=O)c1c(-c2ccc(OCC)cc2)csc1NC(=O)CCN1C(=O)c2ccccc2C1=O	nt	-4.5	16.7	12.0	nt	nt	2.7
COc1cc(C(=O)NCCC(=O)NC2CCCCC2)cc(OC)c1OC	-10.6%	-1.6	1.0	0.7	-2.0	-2.2	-4.4
Cc1ccc(C(=O)N/C(=C\c2ccc(-c3ccccc3[N+](=O)[O-])o2)C(=O)NCCN(C)C)cc1	5.9%	3.5	-20.9	-2.3	15.4	0.3	-48.0
Cc1ccc(OCC(=O)Nc2ccc3c(c2)C(=O)NC3=O)c(C)c1	nt	5.6	-18.5	-3.8	4.1	1.8	0.3
O=C(O)CCC(=O)N(Cc1ccco1)C1CC(=O)N(c2ccccc2)C1=O (stereo not given)	-9.0%	?	-2.0	-4.8	-3.4	5.7	0.2
C=C1CC[C@@H]2[C@](C)(CCC[C@@]2(C)/C=C/[C@@H](O)C(C)(C)O)[C@H]1CC(=O)NCCS(=O)(=O)O	1.5%	nt	nt	nt	-3.5	-0.5	nt
COc1ccc2[nH]c(=O)c(CNc3ccccc3)cc2c1	19.9%	-28.7	-8.5	2.4	7.5	0.4	-4.4
O=C(Nc1ccc(Cl)cc1C(=O)Nc1ccc(Br)cn1)c1ccco1	7.4%	-7.6	-5.9	36.6	2.1	0.5	3.3
Cc1ccc(C(=O)NCCc2ccc(S(N)(=O)=O)cc2)o1	?	-3.7	-3.2	0.6	3.3	4.5	1.4
N#CCCN(Cc1cccnc1)S(=O)(=O)c1ccc(S(=O)(=O)NC2CCCCC2)cc1	5.8%	?	0.2	-1.4	5.3	2.8	4.8
Cc1cc(-c2nc3ccccc3s2)ccc1N	-6.8%	nt	nt	nt	-3.6	4.9	nt
Cc1c(Cl)cccc1NC(=O)CNC(=O)C1CC(=O)N(C2CCCC2)C1 (stereo not given)	nt	nt	26.1	nt	2.3	-1.1	-1.7
COc1ccc(-c2csc(N3C(=O)CNC3=S)n2)cc1	-4.1%	-0.3	nt	-9.7	3.5	0.3	-0.8
CCOC(=O)c1cn(Cc2ccccc2)c2cc(C)nn2c1=O	-4.3%	2.6	-16.0	-3.6	1.2	0.4	-4.2
COc1ccc(OCC(O)CNC(=O)c2ccc(OC)cc2)cc1 (stereo not given)	-6.5%	2.5	0.4	7.0	-0.6	3.0	6.5
COc1ccc(NC(=O)CN(C)C(=O)CSc2ccc(Br)cc2)cc1	-12.4%	nt	nt	nt	9.8	3.3	2.7
CCCCN(Cc1ccccc1)S(=O)(=O)c1ccc2[nH]c(=O)oc2c1	-5.5%	-3.1	-8.3	1.2	38.9	-0.7	2.7

Three structures already listed, ordered by SMILES length, low to high:
SMILES	Vif TR-FRET	RanGTP-Imp inh	ALR inh	Calb FLC	Beta2AR agonist	HNF4A DNA FP	LANA-H2A inh
Cc1cccc(-n2c(C)nc3ccsc3c2=O)c1	nt	2.7	-8.8	-13.4	-9.4	3.0	2.7
COc1ccc2[nH]c(=O)c(CNc3ccccc3)cc2c1	19.9%	-28.7	-8.5	2.4	7.5	0.4	-4.4
O=C(Nc1ccc(Cl)cc1C(=O)Nc1ccc(Br)cn1)c1ccco1	7.4%	-7.6	-5.9	36.6	2.1	0.5	3.3

Later entries:
SMILES	Vif TR-FRET	RanGTP-Imp inh	ALR inh	Calb FLC	Beta2AR agonist	HNF4A DNA FP	LANA-H2A inh
COc1cccc(C(=O)NCc2ccc3c(c2)OCO3)c1	1.2%	-2.0	0.7	-11.8	-0.8	0.7	0.8
COc1ccc(CNC(=O)C2CCCN(S(=O)(=O)c3cc(C)ccc3OC)C2)cc1 (stereo not given)	3.6%	0.7	-9.7	2.6	-15.7	1.4	-4.1
COc1cccc(C(c2sc3ncnn3c2O)N2CCN(C(=O)c3ccco3)CC2)c1 (stereo not given)	-2.0%	0.2	nt	1.5	-6.9	2.9	4.1
CCCOc1ccc(NC(=O)C2OC3OC(C)(C)OC3C3OC(C)(C)OC23)cc1 (stereo not given)	2.3%	3.8	1.8	-3.1	nt	nt	3.1
Cc1cc(SCC(=O)NC(=O)NCc2ccco2)nc2c(C)cccc12	?	2.3	43.1	11.4	4.9	-2.9	-8.0
Cc1cc(NC(=O)c2cc(-c3ccc(OC(C)C)cc3)nc3ccccc23)no1	nt	0.3	-2.0	15.1	12.9	1.5	1.8
COc1cc(/C=N/N=C(/N)c2nonc2N)cc(Br)c1OCc1ccccc1C	-2.8%	?	1.9	5.5	16.9	3.1	0.3
CC1CCCCN1CCCNC(=O)c1ccc(Br)cc1 (stereo not given)	nt	-0.1	nt	10.6	-15.5	6.2	4.7
Cn1nc(C(=O)N2CCN(S(=O)(=O)c3ccc(Cl)cc3)CC2)c2ccccc2c1=O	0.0%	nt	nt	nt	1.0	-3.8	nt
CCc1ccc(NC(=O)c2ccc3c(c2)C(=O)N(CCOC)C3Nc2ccc(CC)cc2)cc1 (stereo not given)	-9.8%	-0.7	-2.3	-2.8	9.2	0.3	-2.8
O=S(=O)(Oc1ccc(C(=S)N2CCOCC2)cc1)c1ccc(Cl)cc1	-0.9%	?	0.3	-10.4	-2.9	2.2	-23.0
COc1ccc(N(CC(=O)Nc2ccc(F)cc2F)S(=O)(=O)c2c(C)nn(C)c2C)cc1	nt	-0.2	0.7	3.9	-2.6	4.5	4.6
CN(C)c1nc(-c2ccccc2)ncc1S(=O)(=O)c1ccccc1	-4.3%	0.9	-7.3	47.4	-10.9	0.8	-3.1
Oc1c(Br)cc(Br)cc1/C=N/Nc1ccc(Cl)nn1	nt	-9.8	nt	83.1*	-9.0	8.0	7.4
